MbtI inh: MbtI salicylate synthase inhibition | P9WFX0 | purified MbtI enzyme, fluorescence intensity read-out | inhibition, %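 (about 17 µg/mL by stock and volumes)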 | 100,000 tested, 0.89% active | AID 493033;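 active = above 50% in both replicates, above 80% if mildly self-fluorescent; inactive = the rest, strongly fluorescent compounds included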;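 note: 0% = mean of negative and 100% = mean of positive controls; one replicate is shown; some compounds called inactive have numbers as strong as hits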
Target sequence (P9WFX0 whole entry, looked up): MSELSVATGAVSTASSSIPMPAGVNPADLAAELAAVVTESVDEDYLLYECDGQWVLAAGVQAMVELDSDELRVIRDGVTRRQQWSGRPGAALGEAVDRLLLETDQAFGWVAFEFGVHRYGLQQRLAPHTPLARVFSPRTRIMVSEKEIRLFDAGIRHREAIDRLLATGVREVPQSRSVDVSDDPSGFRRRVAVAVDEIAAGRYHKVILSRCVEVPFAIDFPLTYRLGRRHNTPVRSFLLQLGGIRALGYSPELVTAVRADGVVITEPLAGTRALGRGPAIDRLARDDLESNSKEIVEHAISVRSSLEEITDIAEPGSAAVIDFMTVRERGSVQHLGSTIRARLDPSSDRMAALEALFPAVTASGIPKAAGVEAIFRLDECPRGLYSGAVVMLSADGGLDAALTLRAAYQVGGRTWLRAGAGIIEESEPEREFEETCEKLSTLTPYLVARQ
MenB inh: inhibitors of Mycobacterium tuberculosis MenB enzyme | AID 540299 | 100,000 tested, 0.43% active | P9WNP5 | inhibition, %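 (about 12 µg/mL by stock and volumes)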 | MenB enzyme assay, absorbance read-out; some hits fall short of the stated cut;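 active = mean of two replicates above 30%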;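 note: 0% = no compound and 100% = wells with inactive enzyme; the first replicate is given; strong numbers were not always called active; inactives centre near -10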
Target sequence (P9WNP5 whole entry, looked up): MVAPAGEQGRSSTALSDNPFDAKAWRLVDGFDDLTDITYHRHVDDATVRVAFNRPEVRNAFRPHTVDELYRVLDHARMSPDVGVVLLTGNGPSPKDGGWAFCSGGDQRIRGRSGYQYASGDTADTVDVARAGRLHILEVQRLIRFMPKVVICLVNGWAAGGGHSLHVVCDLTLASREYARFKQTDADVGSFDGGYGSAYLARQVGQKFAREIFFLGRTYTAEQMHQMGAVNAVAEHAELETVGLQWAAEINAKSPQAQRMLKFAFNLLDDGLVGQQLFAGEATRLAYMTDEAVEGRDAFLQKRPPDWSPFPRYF
Polio RdRp inh: inhibitors of poliovirus RNA polymerase binding and polymerization; AID 588519; poliovirus polymerase elongation, fluorescence polarization; hits give low values; % elongation, % (compound at 16.7 µg/mL); 150,000 tested, 0.66% active; P03300; in the data active = % elongation below about 90%; note: some results filed as inactive read as strong as hits
Polio RdRp inh intensity: recorded beside Polio RdRp inh, whose call it bears; % elongation; measured here: total intensity read-out; formula for this scale not given here;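 total fluorescence in place of polarization; lower means less elongation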
Numbers without * were called inactive; / = not tested or not shown; & = joins results of further samples.

SMILES | MbtI inh | MenB inh | Polio RdRp inh | Polio RdRp inh intensity
CCCCN(C)C1CCN(Cc2ccccc2)CC1 | -3.5 | -12.8 | 103.0 | 99.0
CN1C(=O)COc2ccc(C(=O)CSc3nc(-c4ccccc4)c(C#N)c(=O)[nH]3)cc21 | -21.8 | -8.0 | 102.0 | 100.0
O=C(CCn1c(=O)oc2ccccc21)Sc1ccc(Cl)cc1Cl | 70.3* | 1.9 | 87.0* | 87.0*
O=C(NNc1nc2ccccc2s1)Nc1ccccc1 | 1.6 | -19.0 | 103.0 | 103.0
CN(C)/C=C/C=C1\CCc2ccccc2C1=O | 35.9 | -207.3 | 70.0 | 196.0
CCN(CC)S(=O)(=O)c1ccc(-n2c(=O)c(C(C)C)c(C)n2C)cc1 | -6.2 | -6.3 | 99.0 | 100.0
CCOC(=O)c1cn(-c2ccc(Cl)cc2)nc1C(F)(F)F | / | -13.9 | 104.0 | 105.0
Cc1cc(C)cc(CC2CC(=O)N(CCc3ccc4c(c3)OCO4)C2=O)c1 (stereo not drawn) | -3.8 | -46.2 | 103.0 | 97.0
COc1ccc(CC(=O)Nc2ccccc2N2CCOCC2)c(OC)c1 | -3.8 | -44.2 | 96.0 | 109.0
CC(=O)Nc1sc2c(c1CN1CCN(c3ccccn3)CC1)CCCC2 | 15.1 | -21.4 | 103.0 | 105.0
Cc1noc(C)c1C(=O)OCC(=O)N1CCCC1=O | -8.1 | -10.5 | 99.0 | 101.0
O=C(CN1C(=O)C(c2ccccc2)Oc2cccnc21)NCCCN1CCCCC1 (stereo not drawn) | -6.4 | 0.5 | 101.0 | 105.0
CCn1c(SCc2cc(=O)oc3cc(NC(C)=O)ccc23)nnc1-c1ccccc1 | 65.1 | -13.6 | / | /
Cc1ccccc1C(=O)N/N=C/c1ccccc1 | 17.5 | -29.3 | 103.0 | 104.0
N#Cc1c(NC(=S)Nc2ccccc2)sc2c1CCC2 | / | -21.9 | 114.0 | 132.0
CCNc1nc(=S)[nH]c2ccccc12 | 30.0 | 9.5 | 99.0 | 102.0
O=C(Nc1ccc(Br)cc1)C12CCN(CC1)Cc1ccccc12 | / | -9.7 | 101.0 | 105.0
COC(=O)c1ccc2c(c1)N(C)S(=O)(=O)/C(=C\N(C)C)C2=O | -4.3 | 0.1 | 100.0 | 103.0
CCc1cccc(NC(=O)C2c3ccccc3C(=O)N(C)C2c2cn(C)c3ccccc23)c1 (stereo not drawn) | -12.2 | 18.2 | 101.0 | 102.0
CC(=O)N(CN1C(=O)C2CC=CCC2C1=O)c1ccccc1 (stereo not drawn) | 5.3 | -5.5 | 99.0 | 97.0
COc1ncccc1C(=O)Nc1ccc(F)cc1F | 4.2 | 1.8 | 107.0 | 114.0
CSCCC(C(=O)Nc1cccnc1)N1C(=O)c2ccccc2C1=O (stereo not drawn) | -3.1 | -16.1 | 105.0 | 110.0
Cc1nn(-c2cccc(C(F)(F)F)c2)c2c1cnn2-c1nc2ccccc2o1 | -6.6 | -16.2 | 103.0 | 108.0
O=C(Sc1ccc(C(F)(F)F)cn1)/C(=C\c1cccs1)c1ccsc1 | 3.8 | -2.9 | 104.0 | 114.0
NC(=O)c1ccccc1Nc1cccc(C(F)(F)F)c1 | -3.7 | -51.2 | 102.0 | 105.0
CC(C)N1C(=O)CNC1=S | 4.7 | -6.4 | 100.0 | 103.0
Cc1ccccc1Nc1nc2ccccc2s1 | -0.7 | / | 101.0 | 103.0
COc1ccc(CCN2C(=O)CC(Sc3ccccc3C(=O)O)C2=O)cc1OC (stereo not drawn) | -13.8 | -4.7 | 101.0 | 107.0
Cc1ccc(C)c(OCCCCn2nnc3ccccc32)c1 | -0.6 | -23.7 | 102.0 | 104.0
S=c1nc(-c2cccs2)[nH]c2ccccc12 | 53.5 | -49.2 | 106.0 | 104.0

A draw from above in order of molar mass, largest number first:
SMILES | MbtI inh | MenB inh | Polio RdRp inh | Polio RdRp inh intensity
O=C(Sc1ccc(C(F)(F)F)cn1)/C(=C\c1cccs1)c1ccsc1 | 3.8 | -2.9 | 104.0 | 114.0
CC(=O)N(CN1C(=O)C2CC=CCC2C1=O)c1ccccc1 (stereo not drawn) | 5.3 | -5.5 | 99.0 | 97.0
Cc1ccc(C)c(OCCCCn2nnc3ccccc32)c1 | -0.6 | -23.7 | 102.0 | 104.0

Next part:
SMILES | MbtI inh | MenB inh | Polio RdRp inh | Polio RdRp inh intensity
CCOC(=O)C1CCCN(C(=O)c2ccc(OCC)cc2)C1 (stereo not drawn) | -13.6 | 15.0 | 101.0 | 103.0
CSc1nnc(CNC(=O)OC(C)(C)C)n1C | -1.0 | -25.7 | 109.0 | 102.0
CC(Sc1nnc(N)s1)C(=O)NC(C)C1CC2CCC1C2 (stereo not drawn) | 7.3 | 12.8 | 100.0 | 97.0
Cc1cc2n(n1)CCCN2C(=O)CCC(=O)N1CCCCCC1 | -2.5 | 13.9 | 103.0 | 103.0
N#Cc1ccc(Oc2ccccc2)cc1C#N | -11.6 | -51.2 | 98.0 | 103.0
COc1ccccc1NC(=O)CSc1ncnc2c1nnn2Cc1ccccc1 | 6.7 | -12.2 | 101.0 | 106.0
FC(F)(F)c1ccccc1-n1c(-c2ccco2)n[nH]c1=S | 26.2 | -21.6 | 100.0 | 103.0
COc1ccccc1CNC(=O)c1ccccc1N(C)S(C)(=O)=O | 29.9 | -19.6 | 101.0 | 101.0
CCOC(Cn1c(SCC#N)nc2ccccc2c1=O)OCC | -9.0 | -10.1 | 99.0 | 97.0
O=C(NC(=O)c1cn2cc(C(F)(F)F)cc(Cl)c2n1)Nc1ccc(Cl)cc1 | -6.8 | -13.2 | 108.0 | 104.0
CCN(CC)C(C(=O)O)c1ccccc1 (stereo not drawn) | -8.4 | -79.5 | 104.0 | 101.0
CC(C)c1ccc(C(=O)Nc2ccccc2C#N)cc1 | -12.3 | -17.2 | 98.0 | 100.0
NNC(=S)Nc1ccccc1C(F)(F)F | 7.9 | -55.8 | 103.0 | 100.0
N#CCCSCc1ccc(C(=O)O)o1 | 3.2 | -4.7 | 99.0 | 112.0
Cc1csc(SCC(=O)N2CCCC2)n1 | -9.3 | -10.0 | 100.0 | 102.0
O=C1C2CCCN2C(c2ccccc2)N1c1ccc(Cl)cc1 (stereo not drawn) | -5.2 | -7.8 | 101.0 | 103.0
O=C(COC(=O)COc1ccc(Cl)cc1)NC1CCCCC1 | -6.2 | / | 103.0 | 103.0
Cc1ccc(N2C(=O)CS/C2=N\C(=O)Nc2ccccc2)c(C)c1 | -1.4 | 13.8 | 99.0 | 103.0
O=C(CNCCC1=CCCCC1)Nc1ccc2[nH]c(=O)[nH]c2c1 | -25.7 | -0.6 | 100.0 | 95.0
CC(C)C(=O)Nc1nnc(C2CC2)s1 | 6.2 | / | 101.0 | 98.0
C=CCN(CC=C)Cc1cc(=O)n2c(-c3ccccc3)csc2n1 | -22.1 | 11.4 | 116.0 | 124.0
Cc1ccc(Cn2c(CO)cnc2SCC(=O)Nc2ccc3c(c2)OCO3)cc1 | -9.7 | -8.7 | 100.0 | 104.0
CCn1c(SCC(=O)OCC(=O)N2c3ccccc3Sc3ccccc32)nnc1-c1ccco1 | -6.6 | -27.4 | 98.0 | 106.0
CCN(CC)C(=O)C1=CC(c2ccco2)=NS(=O)(=O)N1C | -6.2 | -25.2 | 102.0 | 103.0
CCN(CC)CCn1c(=N)n(Cc2ccc(C(C)(C)C)cc2)c2ccccc21 | -1.1 | -15.5 | 99.0 | 102.0
CC1=NN(c2cc(C)nc(-c3ccccc3O)n2)C(=O)C1 | -6.2 | -173.1 | 100.0 | 104.0
CCN(CC)C(=O)Cn1cc(/C=C(\C#N)C(=O)N2CCN(c3ccccc3)CC2)c2ccccc21 | -4.8 | 6.6 | 103.0 | 103.0
N#Cc1c(N2CCOCC2)nc(N2CCOCC2)c2c1CCN(Cc1ccccc1)C2 | -72.1 | -16.3 | 98.0 | 102.0
FC(F)(F)c1cc(-c2cccs2)nc2nc(N3CCOCC3)sc12 | -30.9 | -33.8 | 100.0 | 89.0
Cc1[nH]nc2c1C1=C(C(=O)CCC1)C(c1ccc(N(C)C)cc1)N2 (stereo not drawn) | -8.2 | -9.8 | 104.0 | 100.0
CCCOC(=O)Nc1ccc(Cl)cc1C(=O)c1ccccc1 | / | -17.1 | 102.0 | 104.0
COc1cc(OCc2ccccc2)ccc1CN1CCC(C(=O)c2ccc(F)cc2)CC1 | -6.9 | -19.4 | 107.0 | 104.0
CC(=O)n1nc(-c2cccnc2)nc1N | 4.9 | 9.5 | 106.0 | 100.0
N#CC1(NC(=O)COc2cccc(C(F)(F)F)c2)CCCCC1 | 0.8 | -19.0 | 100.0 | 105.0
COc1ccc2cc([C@H](C)C(=O)O)ccc2c1 | -1.3&-12.4 | -7.3&-7.2 | 99.0&102.0 | 99.0&103.0
COc1ccc(CCNc2ncccc2C#N)cc1OC | -49.3 | -17.8 | 100.0 | 107.0
CN(C)C(=O)c1cc(Cl)ccc1Cl | / | 7.4 | 100.0 | 94.0
FC(F)(F)c1nc(SCc2ccc(Cl)cc2)n[nH]1 | -10.4 | 12.9 | 104.0 | 107.0
COCCNC(=O)Cn1cnc2c(nc3n2CCCCC3)c1=O | -5.8 | -12.4 | 101.0 | 101.0
Cc1cc(N)n(CCC#N)n1 | -16.6 | / | 101.0 | 99.0
CC(=O)N(c1ccc2oc(=O)sc2c1)S(=O)(=O)c1ccccc1 | 1.0 | -34.5 | 103.0 | 106.0
CSC1=NSC2=NC(=O)/C(=C\c3ccc(-c4ccccc4)o3)C(=N)N12 | 3.0 | 4.4 | 93.0 | 183.0
CC(C(=O)NC1CCCCCC1)n1c(=O)c2cccn2c2cccnc21 (stereo not drawn) | 8.2 | 3.1 | 100.0 | 103.0
CCCn1c(=O)cc(N)n(-c2ccc(Cl)cc2)c1=O | -14.6 | -4.6 | 106.0 | 114.0
COc1ccc(CN=C(C)c2c(O)c3ccccc3n(C)c2=O)cc1 | -8.0 | -14.2 | 104.0 | 106.0

Not a retest: entries from further up.
SMILES | MbtI inh | MenB inh | Polio RdRp inh | Polio RdRp inh intensity
CCCOC(=O)Nc1ccc(Cl)cc1C(=O)c1ccccc1 | / | -17.1 | 102.0 | 104.0
COc1cc(OCc2ccccc2)ccc1CN1CCC(C(=O)c2ccc(F)cc2)CC1 | -6.9 | -19.4 | 107.0 | 104.0
CC(=O)n1nc(-c2cccnc2)nc1N | 4.9 | 9.5 | 106.0 | 100.0
N#CC1(NC(=O)COc2cccc(C(F)(F)F)c2)CCCCC1 | 0.8 | -19.0 | 100.0 | 105.0
COc1ccc2cc([C@H](C)C(=O)O)ccc2c1 | -1.3&-12.4 | -7.3&-7.2 | 99.0&102.0 | 99.0&103.0

New compounds follow
SMILES | MbtI inh | MenB inh | Polio RdRp inh | Polio RdRp inh intensity
COc1ccc(C(C)NC=O)cc1OC (stereo not drawn) | -16.2 | 6.0 | 100.0 | 98.0
O=C(CSc1nc2ccccc2[nH]1)N1CCCc2ccccc21 | -3.8 | / | 102.0 | 103.0
O=C(NCCN1CCOCC1)Nc1c[nH]c2ccccc2c1=O | 90.4 | -25.9 | 103.0 | 103.0
N#CC(C#N)=C1C=C2C=C(N3CCCCC3)CCC2CC1 (stereo not drawn) | -4.2 | -20.8 | 44.0 | 245.0
C/C(=N\N=C(/C)c1cccs1)c1cccs1 | -14.1 | -29.8 | 99.0 | 101.0
CCC(C)NC(=O)c1nn(Cc2ccccc2)c(=O)c2ccccc12 (stereo not drawn) | -16.6 | -8.0 | 105.0 | 106.0
COc1ccc(C(=O)O)cc1S(=O)(=O)N(C)CCc1ccccn1 | 3.3 | 15.3 | 104.0 | 98.0
CCC(C(=O)N1CCN(c2cc(C)ccc2C)CC1)n1sc2ccccc2c1=O (stereo not drawn) | -6.9 | -16.2 | 104.0 | 107.0
CC1(C)C(c2ccc(F)cc2)=[N+]([O-])C(C)(C)C(c2ccc(F)cc2)=[N+]1[O-] | -11.1 | -23.2 | 103.0 | 105.0
COCC(C)NC(=O)c1noc2c1CCc1cc(OC)ccc1-2 (stereo not drawn) | 12.9 | -9.4 | 103.0 | 103.0
CC1(C)C(=O)C2(C(=O)N3CCOCC3)CCC1C2 (stereo not drawn) | / | 4.2 | 102.0 | 108.0
COc1ccc2c(c1OC)C(=O)N(c1ccc(F)cc1)C2 | / | -7.0 | 105.0 | 108.0
COC(=O)CCn1c(C)cc(C(=O)CSc2cccc[n+]2[O-])c1C | 10.5 | -13.5 | 99.0 | 105.0
O=C(CSCc1ccccc1)Nc1ccc2c(c1)OCO2 | / | -11.2 | 113.0 | 120.0
CNC(=S)Nc1ccc(OC)c(OC)c1 | -10.0 | -15.2 | 100.0 | 99.0
CC(COc1ccc(C(C)C)cc1)NS(=O)c1ccc2ccccc2c1 (stereo not drawn) | 1.4 | -34.5 | 106.0 | 105.0
COc1ccccc1-n1c2nc3ccccc3nc2c2c(=O)n(C3CCCC3)cnc21 | -6.9 | 7.1 | 100.0 | 103.0
Cc1nc2cc(C(=O)OC(C)C(=O)N3CCOCC3)ccc2n1-c1ccccc1 (stereo not drawn) | 3.8 | -22.2 | 105.0 | 105.0
